Screening results (PubChem BioAssay)
2A StopGo = lowers the luciferase signal of an FMDV 2A StopGo reporter. AID 1159524. 410,000 compounds, 1.2% hits. human cells with a luciferase reporter of 2A StopGo recoding; control for the full effect not named in the record. Potency, µM (highest dose often 57.9 µM), for inactives: at the top dose signal change, negative = less light; active = well fitted falling curve with a large enough effect; inconclusive = small, poorly fitted or top-dose-only effect; inactive = no such curve, though single readings can be large or run the other way; tested in HEK293T cells; further: on the % scale 0 is the no-effect control and ±100 the full control effect; nearly all actives have a fitted effect of over 45% in size; luciferase light after 4 h
LASV entry inh = Lassa virus entry inhibition. Potency, µM (titrated, usually from 37.9 µM), for inactives: top-dose activity change, negative = inhibition, actives largely listed as inhibitors. Lassa virus pseudotype entry inhibition, cell reporter; control for the full effect not named in the record. AID 540256. 300,000 compounds, 1.2% hits; active means well fitted inhibition curve with a large enough effect; inconclusive means small, poorly fitted or top-dose-only effect, or effect the other way; inactive means flat fitted curve, though single readings scatter; tested in HEK293 cells; further: on the % scale 0 is the no-effect control and ±100 the full control effect; nearly all actives have a fitted effect of over 50% in size; luciferase read-out
Marburg entry inh = Marburg virus entry inhibition. Potency, µM (doses to about 37.8 µM), for inactives: at the highest dose activity change, negative = inhibition, hits mostly inhibitors. AID 540276. Marburg virus pseudotyped entry inhibition, cell reporter; control for the full effect not named in the record; about a third of the inactives were read at about 46 µM. 300,000 compounds, 1.8% hits; active = well fitted inhibition curve with a large enough effect; inconclusive = small, poorly fitted or top-dose-only effect, or effect the other way; inactive = flat fitted curve, though single readings scatter; tested in HEK293 cells; about a fifth of its hits are not listed in these tables; further: on the % scale 0 is the no-effect control and ±100 the full control effect; luciferase read-out
RE007 growth inh = less growth of the S. pombe RE007 Vpr strain; S. pombe RE007 Vpr strain, BacTiter-Glo ATP luminescence, 24 h; control for the full effect not named in the record; Potency, µM (top dose mostly 92.2 µM), for the others: at the highest dose activity change, negative = less growth; 360,000 compounds, 0.21% hits; active = well fitted falling curve with a large enough effect; inconclusive = small, poorly fitted or top-dose-only effect; inactive = no such curve, though single readings can be large or run the other way;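 further: on the % scale 0 is the no-effect control and ±100 the full control effect; nearly all actives have a fitted effect of over 50% in size; the assay follows cell death caused by Vpr and the record does not say whether a fall means rescue or toxicity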
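Fission yeast strain RE007, carrying one chromosomally integrated HIV-1 vpr copy, was seeded at OD 0.01 in PMG+AL medium with 23 nL pinned compound. After 24 h at 30 °C and 99% humidity, viability was read by BacTiter-Glo luminescence.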
SARS PLP yeast = SARS-CoV PLP inhibition in yeast. Potency, µM (top dose mostly 32.9 µM), without a hit: at the highest dose activity, positive = growth rescue. AID 485353. S. cerevisiae expressing SARS-CoV PLpro, growth rescue; control for the full effect not named in the record. 330,000 compounds, 0.19% hits; further: 0% is about no effect; nearly all actives have a fitted effect of over 55% in size; growth read by luminescence after 48 h
NS1 inh = inhibitors of influenza NS1 protein function; Potency, µM (doses to about 46.1 µM), for the others: at the top dose activity, positive = more growth; S. cerevisiae slowed by influenza A NS1, growth recovery by OD600; 270,000 compounds, 0.4% hits; further: actives are rising curves; nearly all actives have a fitted effect of over 50% in size
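S. cerevisiae expressing influenza A NS1, grown in glucose, washed, then diluted 1:100 into pH 6.0 -URA galactose medium with 23 nl compound. Growth recovery read as OD600; NS1-free strain serves as control.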
* marks the source's active call; other numbers are inactive results; [ ] = another dose, or the depositor's remark. Unless noted, the call rests on the fitted dose curve; in most records, active means well fitted rising curve with a large enough effect; inconclusive means small, poorly fitted or top-dose-only effect; inactive means no such curve, though single readings can be large or run the other way. Potency means the concentration at half of the fitted maximal effect. Rows were taken by chance. About 4.7% of those tested had a hit in this group.

Results for C/C(=N\NC(=O)Cn1ccc(C(F)(F)F)n1)c1ccc2c(c1)OCO2 ?
2A StopGo: 34%[activator]; LASV entry inh: -15%; Marburg entry inh: 24%[46.1 µM]; RE007 growth inh: -3%; SARS PLP yeast: 0%; NS1 inh: 5%

How did CC(=O)NC(CC(=O)NC1CCCc2ccccc21)c1ccccc1 (centres undefined) do in these assays?
2A StopGo: 26%; LASV entry inh: 16%; Marburg entry inh: 3%[46.1 µM]; RE007 growth inh: -17%; SARS PLP yeast: 0%; NS1 inh: 3%

How did CCC(=O)N1CCN(c2ccc(NC(=O)c3ccc(N4CCOCC4)c([N+](=O)[O-])c3)cc2)CC1 do in these assays?
2A StopGo: inconclusive; LASV entry inh: 0%; Marburg entry inh: 11%; RE007 growth inh: 1%; SARS PLP yeast: inconclusive; NS1 inh: 10%

How did N=c1c2c3c(sc2ncn1N)CCC3 do in these assays?
2A StopGo: -14%; RE007 growth inh: 8%; SARS PLP yeast: 1%; NS1 inh: 3%

Results for CCNC(=S)N(CCN(CC)CC)Cc1cc2cc3c(cc2[nH]c1=O)OCCO3 ?
2A StopGo: 11%; LASV entry inh: -17%[46.1 µM]; Marburg entry inh: inconclusive; RE007 growth inh: -1%; SARS PLP yeast: 5%; NS1 inh: -3%

How did Cc1cc(S(=O)(=O)N2CCN(c3ccccn3)CC2)c(C)cc1Cl do in these assays?
2A StopGo: 0%; RE007 growth inh: -9%; SARS PLP yeast: -15%; NS1 inh: -56%

Results for Cc1cc(C)cc(C(=O)NCC(=O)N2CCN(c3cccc(Cl)c3)CC2)c1 ?
2A StopGo: -10%; LASV entry inh: inconclusive; Marburg entry inh: inconclusive; RE007 growth inh: 22%; SARS PLP yeast: -4%; NS1 inh: -10%

What do the screens show for `NS(=O)(=O)c1ccc(CCNC(=O)CN2CCN(Cc3cccc(C(F)(F)F)c3)CC2)cc1`?
2A StopGo: inconclusive; LASV entry inh: inconclusive; Marburg entry inh: inconclusive; RE007 growth inh: -4%; SARS PLP yeast: 0%; NS1 inh: 6%

How did Cn1nnnc1SCC(=O)N1CCc2ccccc21 do in these assays?
2A StopGo: -2%; LASV entry inh: 26%[46.1 µM]; Marburg entry inh: inconclusive; RE007 growth inh: 0%; SARS PLP yeast: 0%; NS1 inh: -5%

Molecules shown so far with four or more nitrogen atoms:
Results for C/C(=N\NC(=O)Cn1ccc(C(F)(F)F)n1)c1ccc2c(c1)OCO2 ?
2A StopGo: 34%[activator]; LASV entry inh: -15%; Marburg entry inh: 24%[46.1 µM]; RE007 growth inh: -3%; SARS PLP yeast: 0%; NS1 inh: 5%

How did CCC(=O)N1CCN(c2ccc(NC(=O)c3ccc(N4CCOCC4)c([N+](=O)[O-])c3)cc2)CC1 do in these assays?
2A StopGo: inconclusive; LASV entry inh: 0%; Marburg entry inh: 11%; RE007 growth inh: 1%; SARS PLP yeast: inconclusive; NS1 inh: 10%

How did N=c1c2c3c(sc2ncn1N)CCC3 do in these assays?
2A StopGo: -14%; RE007 growth inh: 8%; SARS PLP yeast: 1%; NS1 inh: 3%

Results for CCNC(=S)N(CCN(CC)CC)Cc1cc2cc3c(cc2[nH]c1=O)OCCO3 ?
2A StopGo: 11%; LASV entry inh: -17%[46.1 µM]; Marburg entry inh: inconclusive; RE007 growth inh: -1%; SARS PLP yeast: 5%; NS1 inh: -3%

What do the screens show for `NS(=O)(=O)c1ccc(CCNC(=O)CN2CCN(Cc3cccc(C(F)(F)F)c3)CC2)cc1`?
2A StopGo: inconclusive; LASV entry inh: inconclusive; Marburg entry inh: inconclusive; RE007 growth inh: -4%; SARS PLP yeast: 0%; NS1 inh: 6%

How did Cn1nnnc1SCC(=O)N1CCc2ccccc21 do in these assays?
2A StopGo: -2%; LASV entry inh: 26%[46.1 µM]; Marburg entry inh: inconclusive; RE007 growth inh: 0%; SARS PLP yeast: 0%; NS1 inh: -5%
